Compound activity as filed in PubChem.
B2AR ag = human beta-2 adrenergic receptor agonism by FAP | P07550 | Am2.2-beta2AR cells, FAP receptor internalization, flow cytometry; reference of the scale not given here | response, % (no concentration beside the values) | hit rate 0.43% among 340,000;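 active = response above a set limit, near 3 SD of response in nonfluorescent compounds, cut at about 42% in these data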;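 note: stock transfer was 100 nL into about 11 µL; a reference agonist was the positive control; negative values mostly stem from fluorescent compounds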
UCH37 inh = human UCH37 deubiquitinating enzyme inhibition; Q9Y5K5; purified proteasome/UCH37, Ub-AMC cleavage fluorescence; inhibition, % (test concentration not listed); hit rate 0.33% among 330,000;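 active = mean of two replicates above 20%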;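 note: 0% = compound-free wells with enzyme and 100% = wells lacking proteasome; stock transfer was 100 nL into about 20 µL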
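Material: human UCH37 enzyme supplied as purified proteasome complex. Measure: % inhibition of Ub-AMC cleavage fluorescence. Medium: pH 7.4 Tris-HCl (50 mM) with ovalbumin, ATP-MgCl2, DTT. Times: 30 min preincubation with enzyme, 25 min cleavage at room temperature. Detection: AMC fluorescence intensity at 355/460 nm.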
Calb FLC = affects C. albicans growth with fluconazole | hit rate 0.57% among 300,000 | growth inhibition, % (concentration not given with the values) | C. albicans CaCi-2 (fluconazole-resistant clinical isolate) + fluconazole, Alamar Blue growth, 48 h;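 active = most replicates above 75%; inconclusive = exactly half above 75%; inactive = most below 75%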;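 note: all wells also contain fluconazole at 8 µg/ml as a sub-toxic cotreatment; 0% = median of DMSO wells and 100% = median of geldanamycin control wells; wells of about 8 µL received 7.5 nL stock; the first replicate is given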
A1 inh = inhibitors of the anti-apoptotic protein A1, read as caspase activation; MEF A1-2A-BIM cells, Caspase-Glo 3/7 luminescence, 3 h; percent of clofoctol response, vehicle zero; caspase activation, % (no concentration beside the values); hit rate 0.066% among 330,000;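 active = over half of replicate activation scores above 10%, or exactly half above 10 with the replicate mean above 10; inconclusive = replicate mean below 10 yet half the replicates above 10; inactive = over half of replicates below 10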;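 note: wells of about 30 µL received 50 nL stock; many hits fall short of the cut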
T cruzi inh = T. cruzi replication inhibition. T. cruzi beta-gal in NIH3T3, luminescence, 90 h. inhibition, % (test concentration not listed). hit rate 1.4% among 300,000;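 active = mean inhibition across valid replicates above about 55%, limit read from the data; inconclusive = mean below that limit but half or more replicates reach it; inactive = mean below it, under half of replicates reach it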;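 note: signal also drops with host cell toxicity which is not excluded here; 0% = plate median of DMSO wells and 100% = zero luminescence signal; higher percent means less beta-gal luminescence so fewer parasites; stock transfer was 50 nL into about 50 µL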
LANA-H2A inh = blocks KSHV LANA binding to histone H2A/H2B; inhibition, % (test concentration not listed); hit rate 0.6% among 320,000; AID 2629; cell-free LANA-H2A/H2B peptide, fluorescence polarization; in the data active = inhibition mostly above about 10%, no sharp cut-off; inactive = mostly below about 6.7%;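 note: stock transfer was 7.5 nL into about 10 µL; 0% = median of vehicle wells and 100% = median of positive control wells; one replicate is shown; the record names a cut of 25% in any replicate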
Target sequence (Q9QR71 whole entry, looked up): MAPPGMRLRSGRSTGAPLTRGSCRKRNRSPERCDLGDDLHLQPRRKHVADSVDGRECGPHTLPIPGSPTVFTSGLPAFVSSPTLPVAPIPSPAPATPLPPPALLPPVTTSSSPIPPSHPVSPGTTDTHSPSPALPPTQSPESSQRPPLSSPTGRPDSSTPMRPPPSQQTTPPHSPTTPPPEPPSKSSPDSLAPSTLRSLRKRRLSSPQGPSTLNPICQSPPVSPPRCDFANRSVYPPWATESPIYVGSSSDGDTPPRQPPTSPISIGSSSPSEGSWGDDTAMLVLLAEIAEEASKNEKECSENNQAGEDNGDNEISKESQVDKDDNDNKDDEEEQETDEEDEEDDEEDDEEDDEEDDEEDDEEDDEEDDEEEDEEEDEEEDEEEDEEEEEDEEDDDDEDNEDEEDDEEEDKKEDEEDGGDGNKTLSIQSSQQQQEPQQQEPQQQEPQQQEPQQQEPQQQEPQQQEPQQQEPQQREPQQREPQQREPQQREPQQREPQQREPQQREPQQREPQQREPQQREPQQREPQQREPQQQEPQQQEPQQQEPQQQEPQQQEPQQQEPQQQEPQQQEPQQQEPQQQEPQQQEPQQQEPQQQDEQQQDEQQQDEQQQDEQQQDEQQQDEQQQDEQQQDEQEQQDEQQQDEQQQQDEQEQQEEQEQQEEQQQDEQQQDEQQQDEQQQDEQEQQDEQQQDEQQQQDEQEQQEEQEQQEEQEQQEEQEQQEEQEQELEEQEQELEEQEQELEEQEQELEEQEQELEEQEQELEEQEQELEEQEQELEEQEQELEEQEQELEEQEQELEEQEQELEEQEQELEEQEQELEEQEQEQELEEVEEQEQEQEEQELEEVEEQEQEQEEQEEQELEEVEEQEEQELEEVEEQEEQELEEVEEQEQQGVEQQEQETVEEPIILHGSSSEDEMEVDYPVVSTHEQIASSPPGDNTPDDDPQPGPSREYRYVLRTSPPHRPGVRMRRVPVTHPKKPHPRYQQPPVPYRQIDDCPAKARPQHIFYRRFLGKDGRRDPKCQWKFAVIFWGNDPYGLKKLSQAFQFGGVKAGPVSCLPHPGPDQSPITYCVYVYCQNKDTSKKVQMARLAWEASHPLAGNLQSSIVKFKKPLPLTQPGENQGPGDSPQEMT
Beta apoptosis = blocks beta cell apoptosis | INS-1E cytokine-induced death, ATP luminescence, 48 h; percent of positive-control rescue, neutral wells zero | protection from apoptosis, % (no concentration beside the values) | hit rate 0.8% among 300,000;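 active = all replicates at 75% or more, or half of them and the mean; inconclusive = half reach 75% but not the mean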;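 note: 0% = cytokine-treated negative control wells and 100% = positive control rescue; higher means more ATP so stronger rescue from cytokine killing; wells of about 40 µL received 100 nL stock; the first replicate is given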
RanGTP-Imp inh = disruptors of Ran-importin-beta complex formation – biochemical, FRET, CFP-Ran, YFP-importin-beta, homogeneous, primary screen | cell-free CFP-Ran/YFP-importin-beta FRET ratio | inhibition, % (concentration not given with the values) | hit rate 1.1% among 300,000 | AID 2216;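 active = most replicates above 15%; inconclusive = exactly half above 15%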;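 note: 0% = DMSO wells and 100% = Ran loaded with GDP instead of GTP; wells of about 40 µL received 100 nL stock; the first replicate is given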
* marks the source's active call; other numbers are inactive results; i = inactive; ? = inconclusive; . = no result given.

canonical_smiles,B2AR ag,UCH37 inh,Calb FLC,A1 inh,T cruzi inh,LANA-H2A inh,Beta apoptosis,RanGTP-Imp inh
Cc1ccc(NC(=O)C2CCN(S(=O)(=O)c3c(C)[nH]c(=O)[nH]c3=O)CC2)cc1,1,0.6,10,1.4,-3,-2.9,1,8.7
CC1(C)Cc2c(sc3c2c(N)nc(=S)n3Cc2ccccc2)CO1,.,2.5,5,0.4,0,3.3,-8,-1.1
O=C(CCc1cnccn1)NC1CCCc2c1cnn2-c1ccc(F)cc1F (configuration not stated),-4,-0.9,15,0.6,2,7.2,3,1.0
Cc1ccccc1Nc1nc(NCc2ccco2)c2ccccc2n1,10,-51,39,-7.4,58*,5.2,37,-0.3
O=C(N=C1SC2CS(=O)(=O)CC2N1c1cccc(Cl)c1Cl)C1CC1 (configuration not stated),-5,3.0,-7,-0.9,1,0.3,-2,-2.3
COc1ccc(CCNC(=O)C(Sc2ccccn2)c2ccccc2)cc1OC (configuration not stated),-4,2.9,-13,-0.7,10,0.4,.,6.4
CN(c1ccccc1)S(=O)(=O)c1ccc(C(=O)N2CCN(c3ccccc3Cl)CC2)cc1,-2,0.2,.,-1.3,.,0.5,4,.
Nc1nc(-c2ccco2)nn1S(=O)(=O)c1ccccc1,-4,-1.2,-5,-0.1,-11,1.6,-5,0.7
COc1ccc(CCNC(=O)c2ccccc2OCc2ccccc2)cc1,-17,0.0,-1,-0.3,19,-1.9,.,2.6
COc1cccc(Cn2nnc(C(=O)NCc3ccc4c(c3)OCO4)c2N)c1,-3,1.2,-21,1.0,0,2.0,-5,-2.3
CC(=O)NCCC(Cc1ccccc1)c1ccco1 (configuration not stated),2,0.9,0,0.0,10,-0.5,.,2.9
Cc1ccc(NC(=O)CCN2C(=O)NC3(CCCC3)C2=O)cc1S(=O)(=O)N1CCOCC1,-7,-1.7,.,0.0,.,4.4,1,.
COc1ccc(-c2nsc3c(N4CCCCC4C)ncnc23)cc1 (configuration not stated),2,-11,14,-3.8,18,3.4,2,4.3
CCC(C)NC(=O)CSc1ccc(S(=O)(=O)N2CCN(Cc3ccccc3)CC2)cn1 (configuration not stated),2,2.6,.,0.1,.,-1.3,-1,.
CCOc1cc(CNc2ccc(N3CCCC3)cc2)cc(Cl)c1OC,-1,2.3,5,0.2,49,2.2,9,-0.1
N#C/C(=C\c1cccc([N+](=O)[O-])c1)C(=O)Nc1cccnc1,2,.,3,0.1,-20,-3.2,-11,-1.0
COc1c(C)cc(C(=O)C2CCCN(C(=O)/C=C/c3ccccn3)C2)cc1C (configuration not stated),5,2.0,11,1.6,-3,1.4,0,8.0
Cc1cccc(OCc2nc(C#N)c(N3CCCC3)o2)c1,-4,5.8,6,-0.1,11,0.5,0,0.1
COc1ccc(-c2[nH]ncc2CN2C[C@@H]3CCC[C@H]2C3)c(F)c1,6,3.9,-3,0.1,21,1.8,-2,3.4
CC(=O)c1cc2c(cc1NC(=O)CN1CCN(c3ccc(F)cc3)CC1)OCO2,2,1.6,0,0.2,14,1.7,4,3.4
Cn1cc(CN2CCN(Cc3cccnc3)CC2)c(-c2ccc3c(c2)OCCO3)n1,-3,2.1,-13,0.2,1,-6.3,11,-4.0
N#Cc1c(SCC(=O)Nc2nc3ccccc3s2)sc2c(O)cc(=O)[nH]c12,2,-0.6,.,0.6,.,.,4,.
Cc1ccc(-n2nnnc2SCc2nnc(-c3ccccc3Br)o2)c(C)c1,0,2.9,12,0.4,21,3.9,3,3.5
COc1ccc2[nH]c(=O)c(CN(c3ccccc3)S(=O)(=O)c3ccccc3)cc2c1,1,-15,0,-0.5,-2,-4.2,2,-3.9
CCOc1ccc(C(=O)Nc2ccncc2)cc1,8,0.4,1,-2.8,-17,-9.2,3,0.6
CCOCCCNC(=O)c1ccc(Br)cc1,0,5.3,1,?,-3,-3.5,-9,0.3
CC(=O)CCc1oc2ccc(C)cc2c1-c1ccccc1,0,4.7,-1,-0.1,25,-5.8,4,4.1
O=C(CCNC(=O)c1ccccc1)N=Nc1c(O)[nH]c2ccccc12,.,4.4,2,0.2,-5,1.6,-2,7.2
O=C(NCCN1CCOCC1)C(=O)NCC1OCCN1C(=O)c1ccc(Cl)cc1 (configuration not stated),0,0.7,-2,.,-9,-1.1,1,-0.6
CC1CCCC(NC(=O)COC(=O)/C=C/c2ccco2)C1C (configuration not stated),-4,3.6,.,-0.5,.,-7.3,0,.
C#CCOCCOCCOCCNc1nc(N2CCN(C(=O)[C@H](CCC(=O)O)n3cc(C(N)Cc4ccc(O)cc4)nn3)CC2)nc(N2CCN(C(=O)[C@H](Cc3cc4ccccc4[nH]3)n3cc(C(N)CC(C)C)nn3)CC2)n1 (some centres not stated),.,1.9,2,0.4,-11,-2.4,4,2.3
O=C(Nc1ccc(S(=O)(=O)N2CCCCC2)cc1)c1ccco1,-1,2.2,12,-0.8,-6,1.3,2,1.2
COc1ccc(/C=N/NC(=O)c2ccc(Br)o2)cc1Cn1cc([N+](=O)[O-])cn1,-3,.,9,-0.2,6,-6.0,-1,3.0
CCn1cc(Br)c(C(=O)N(C)Cc2ccccc2)n1,3,-0.3,6,0.9,-13,-5.3,1,3.8
CCCCSc1nc(C)cc(C)c1S(=O)(=O)c1ccccc1C,-1,5.5,-7,0.0,23,-3.3,1,2.2
COc1cccc(CNC(=O)C2CCN(c3nn4c(=O)cc(C)nc4s3)CC2)c1,-3,1.3,-3,-1.2,-7,-1.6,-8,3.0
COc1ccccc1CCC(=O)Nc1nccs1,-6,0.2,2,0.9,-9,0.9,-1,?
Cc1ccc(S(=O)(=O)NCCCNS(=O)(=O)c2ccccc2[N+](=O)[O-])cc1,6,1.7,4,0.2,8,-5.2,.,-2.7
CCOC(=O)c1c(C(C#N)C#N)cc(C)nc1C,7,18,16,0.2,-9,-1.0,1,-2.7
COc1ccc2c(C(=O)c3ccc(Cl)cc3)n(CCCC(N)=O)[n+]([O-])c2c1,-5,1.5,-8,-0.4,-25,4.8,-7,3.0
CN(C1CCCCC1)C(CNS(=O)(=O)c1ccccc1)c1ccccc1 (configuration not stated),-4,2.1,-45,-2.9,18,1.4,-7,2.5
Cc1[nH]c2ccc(Br)cc2c(=O)c1CN1CCCCC1,-10,1.2,1,-0.6,-13,3.2,-6,-1.3
Cc1nc(CN(C)C(=O)c2cc(COc3ccc4ncccc4c3)on2)cs1,-11,1.2,-2,-0.7,21,-1.0,42,-1.4
CN(C(=O)COC(=O)CSCc1cccc(Cl)c1)c1c(N)n(Cc2ccccc2)c(=O)[nH]c1=O,-1,5.7,.,0.0,.,.,-1,.
COc1cc(C(=O)NCc2ccc(-c3nc4ccccc4o3)cc2)cc(OC)c1OC,1,-3.9,-10,-0.4,-3,4.0,9,1.9
Cc1nnc2ccc(-c3ccc(NS(=O)(=O)c4ccc(Cl)s4)cc3)nn12,8,5.8,.,0.3,.,.,-1,.
O=C(CCC(=O)N/N=C/c1ccc(Br)s1)NCc1ccccc1,-2,.,3,-0.4,1,-7.7,0,0.2
O=C(COC(=O)C(Cc1ccccc1)NC(=O)c1ccccc1)c1ccccc1 (configuration not stated),4,4.7,1,0.1,-12,-0.6,-1,0.6
CC(C)CC(C(=O)NCC1CCCO1)N(C(=O)Cn1nnc(-c2ccc(F)cc2)n1)c1ccccc1F (configuration not stated),-4,4.0,-1,-0.2,4,-3.3,-5,?
O=c1[nH]c(=O)n([C@H]2C[C@H](O)[C@@H](CO)O2)cc1F,20,-0.2,.,0.3,35,4.6,40,3.0
NC(=O)c1ccc(SCC(=O)OCC(=O)NC2CCCCCCC2)c([N+](=O)[O-])c1,5,3.3,.,-0.8,.,1.9,2,.
Cc1ccc2oc(-c3cccc(NC(=O)/C=C/c4cccc([N+](=O)[O-])c4)c3C)nc2c1,-7,.,17,-1.2,15,-6.8,5,6.9
Cc1ccccc1S(=O)(=O)/N=C(/Nc1nc2ccccc2s1)c1ccccc1,11,-105,.,-0.1,.,-0.8,7,.
CC(C)N1CCC(=NNc2ccc([N+](=O)[O-])cc2S(=O)(=O)N2CCOCC2)CC1,5,6.4,13,0.3,1,-2.9,-6,2.6
CC(=O)c1cccc(NC(=O)N2CCCC2C(=O)NCc2ccc(F)cc2)c1 (configuration not stated),-6,5.3,-6,-0.4,-8,-3.2,-4,-3.5
Cc1ccc(NC(=O)/C(=C/c2cccc(Br)c2)NC(=O)c2ccco2)cc1,4,-0.3,-11,0.4,33,-2.7,-16,6.6
CCOC(=O)N1CCN(C(=O)CCc2ccc(S(=O)(=O)NC(C)C)cc2)CC1,-6,3.1,4,-1.9,1,2.0,-2,10.0
Cn1cccc1C1(C(F)(F)F)NCCNC1=O (configuration not stated),7,0.5,-11,-1.1,-3,-4.4,-5,?
COc1cccc(CNC(=O)CCCn2nc(C)c3c(C)n(-c4ccc(C)cc4)nc3c2=O)c1OC,-6,1.6,10,-0.3,-2,-1.3,0,6.1
O=C(N/C(=C/c1ccc(Br)cc1)C(=O)N1CCCCC1)c1ccccc1F,-10,1.7,12,-2.0,-1,-0.3,.,1.5

Next part
canonical_smiles,B2AR ag,UCH37 inh,Calb FLC,A1 inh,T cruzi inh,LANA-H2A inh,Beta apoptosis,RanGTP-Imp inh
O=C(O)c1ccccc1NCc1ccncc1,3,-18,-5,0.4,-10,1.4,-5,7.1
COc1ccc(Br)c(C(=O)Nc2nc3ccccc3[nH]2)c1,-21,-2.1,3,0.1,-1,-5.7,6,0.3
COC(=O)CCCC(=O)NC1CCCN(C2Cc3ccccc3C2)C1 (configuration not stated),6,5.2,-2,-0.9,31,-5.5,-2,5.4
COc1ccc(C(=O)/C=C/Nc2ccc([N+](=O)[O-])cc2C)cc1OC,18,-0.4,1,-2.1,-8,6.4,6,-0.9
COC(=O)[C@H](CCSC)NC(=O)NCc1ccccn1,3,0.7,5,0.3,-15,-4.6,-3,?
CCOC(=O)c1ccc(NC(=O)CSc2nc(=O)n3cccc(C)c3n2)cc1,9,1.4,4,-0.7,-3,3.6,1,?
N#Cc1c(C(F)(F)F)cc(C2CC2)[nH]c1=O,2,i,-3,-0.8,-6,4.0,0,-2.4
COC(=O)CCC(=O)OC1(C)C(=O)C=C2C=C(C3CC3)N(C3CCCC3)C=C2C1=O (configuration not stated),-6,3.0,-7,0.3,6,-1.3,-7,2.4
O=C(OCN1C(=O)c2ccccc2C1=O)c1cccs1,-2,-0.7,-7,-0.2,10,6.5,-3,?
COc1cc(C(=O)Nc2ccc(S(=O)(=O)N3CCc4ccccc43)cc2)cc(OC)c1OC,26,1.0,2,0.4,?,-3.9,7,5.8
